Sa RN4220 lethal: kills Staphylococcus aureus RN4220; S. aureus RN4220 growth, OD600, 16 h; inhibition, % (test concentration not listed); 330,000 compounds, 0.33% hits;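 active means z-score of -3 or lower and OD600 up to 0.18 on both plates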;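 further: plate controls were untreated cells for no effect and reference antibiotic for full effect; stock transfer was 100 nL into about 80 µL; one replicate is shown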
BJeLR viability: BJeLR cell viability loss | AID 1554 | BJeLR (HRASV12) viability, CellTiter-Glo ATP luminescence, 48 h; reference of the scale not given here | inhibition, % (concentration not given with the values) | 300,000 compounds, 0.17% hits;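 active means replicate mean above 50%; inconclusive means above 50% but judged a plate artefact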;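 further: 50 nL library stock added to about 25 µL; numbers are from one replicate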
ugtP null kill: growth inhibition of S. aureus ugtP deletion strain; 330,000 compounds, 0.54% hits; AID 1259309; growth inhibition, % (concentration not given with the values); S. aureus RN4220 ugtP deletion, OD600 growth, 16 h; some inactives read as strong as hits;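 active means z-score under -3 and OD600 up to 0.15 on both plates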;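 further: plate controls were untreated wells for no effect and antibiotic for full effect; wells of about 80 µL received 100 nL stock; the first replicate is given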
PrP UTR inh: inhibition of PrP 5' UTR reporter expression | inhibition, % (test concentration not listed) | AID 488862 | cell-based PrP 5' UTR mRNA reporter, plate reader | 340,000 compounds, 0.35% hits;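 active means every replicate at 50% or more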;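 further: 0 = median of the neutral control wells; tested in H4 reporter cells; numbers are from one replicate; inactives centre near -14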
Bead autofluor: counter-screen for toxin protease inhibitors: compound fluorescence. compound autofluorescence counterscreen, microsphere flow cytometry; hits give high values. fluorescence intensity (concentration not given with the values). 360,000 compounds, 3.1% hits;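 active means at least 3 SD above the mean of all compounds, about 16000 in these data; inconclusive means too few beads counted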;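 further: 100 nL of 1 mM stock went into each well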
Mtb hypoxia inh: inhibitors of hypoxia-regulated fluorescent reporter in Mycobacterium tuberculosis. fluorescence inhibition, % (concentration not given with the values). 300,000 compounds, 0.1% hits. M. tuberculosis hypoxia-regulated fluorescent reporter, fluorescence;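 active means 35 to 45% if threefold the growth effect, above 45% if 1.5-fold the growth effect; inactive means the rest, general growth blockers included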;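 further: wells of about 50 µL received 100 nL stock; 0% = vehicle wells and 100% = reference inhibitor wells; whole bacteria with a GFP reporter of the hypoxia response; strong numbers were not always called active; many hits fall short of the cut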
Mtb hypoxia inh growth: further read-out of Mtb hypoxia inh, marked with its call; growth inhibition, %; measured here: M. tuberculosis growth (absorbance);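 0% = vehicle and 100% = reference antibiotic; read after six days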
* hit, by the source's call; ? = inconclusive; / = not tested or not shown.

Values in the order: Sa RN4220 lethal, BJeLR viability, ugtP null kill, PrP UTR inh, Bead autofluor, Mtb hypoxia inh, Mtb hypoxia inh growth
> CC(C)CNC1CCS(=O)(=O)C1 (configuration not stated)
  2.5, 1.4, 9.2, -0.4, 2953, -1.9, 11.3
> Cc1ccc(-n2ncc3c2CCCC3NC(=O)CCc2c(C)noc2C)cc1C (configuration not stated)
  -2.0, 5.5, 5.6, -26.4, 5364, -7.4, -24.9
> O=C(C1=C[C@H](c2ccc(Br)cc2)C[C@H](OCCCCO)O1)N1CCN(Cc2ccc3c(c2)OCO3)CC1
  /, 0.4, /, -4.3, 3940, /, /
> O=C(c1ccc(NS(=O)(=O)c2ccc(Cl)c(Cl)c2)cc1)N1CCOCC1
  4.9, /, -0.6, -11.1, 5291, 6.1, 1.0
> OCc1nnn(-c2cccc(C(F)(F)F)c2)c1CO
  3.6, -0.1, 6.4, -13.5, 2390, /, /
> COc1ccccc1N(C)S(=O)(=O)c1ccc(Cl)c(C(=O)NCC2(N(C)C)CCCCC2)c1
  2.3, -16.6, 13.5, -9.9, ?, 6.3, 1.5
> Cc1ccccc1Cc1c(C)nc2nc(SCC(=O)NCCCN3CCCCC3)nn2c1C
  1.2, -4.1, 3.6, -10.1, 4327, -3.0, -6.8
> CC(=O)N1CCOc2ccc(S(=O)(=O)Nc3ccc(Cl)cn3)cc21
  3.6, 4.3, 12.3, -12.0, 5547, 7.4, -3.6
> O=C(NCC(c1ccco1)N1CCCCC1)c1cnc(Cl)c(Cl)c1 (configuration not stated)
  -2.6, /, -4.7, -0.6, 4131, -7.9, -4.9
> CC(=O)c1c(C)nc(-c2ccc(Cl)cc2)nc1N=CN(C)C
  5.6, 3.9, -8.6, -38.8, 2644, /, /
> Cc1ccc(OCCOCCn2cnc3ccccc3c2=O)c([N+](=O)[O-])c1
  3.8, 6.9, 1.6, -10.6, 7470, 9.6, 12.4
> CC1(C)CC2(CCCN3C(=O)CSC32)CCS1 (configuration not stated)
  -2.6, 0.0, -1.4, -10.9, 2908, /, /
> Cc1cccc(N2C(=O)N(c3ccccc3C)C3CS(=O)(=O)CC32)c1 (configuration not stated)
  -0.5, 0.6, 9.7, -8.1, 4801, /, /
> COc1ccc(S(=O)(=O)N2CCC(C(=O)NCc3cccnc3)CC2)cc1Cl
  1.4, 4.8, 5.7, -25.7, 3568, 10.2, 15.1
> Cc1cc(=O)n(-c2ccc(Cl)cc2)c(=O)[nH]1
  -6.7, 5.4, 1.2, -15.7, 4310, -6.6, -8.2
> O=C(CN1C(=O)/C(=C/c2ccc(Cl)cc2)SC1=S)NC1C=CS(=O)(=O)C1 (configuration not stated)
  2.2, -0.4, -0.9, -1.1, 4049, -5.2, 0.1
> Cc1ccccc1NC(=O)CC1SC(=O)N(c2ccccc2)C1=O (configuration not stated)
  16.5, 4.2, 5.6, -14.6, 3958, -2.7, -6.8
> Cc1nn(Cc2c(F)c(F)c(F)c(F)c2F)c(C)c1NC(=O)c1c([N+](=O)[O-])cnn1C
  2.8, -3.8, -4.8, -11.8, 22419*, 5.6, 1.0
> CS(=O)(=O)N1CCN(C(=S)NCc2ccc(F)cc2)CC1
  2.5, -5.4, 3.1, -5.7, 2351, 11.8, 4.9
> O=C(CCCCO)c1ccc(O)c(Cl)c1
  6.5, 7.6, 5.7, -5.9, 3544, 5.3, 8.1
> Cc1cc(Cl)c2ccc(Cl)cc2n1
  3.0, 17.4, 15.0, -5.6, 5864, 13.1, 10.2
> CN(CC(=O)Nc1ccccc1Br)C(=O)Cn1[nH]c(=O)c2ccccc2c1=O
  7.2, /, 14.8, -12.3, 6467, 6.5, -2.7
> NC(=O)c1c(NC(=O)C(=O)N2CCOCC2)sc2c1CCC2
  3.7, 2.5, 1.4, -7.6, 4151, 1.4, -3.6
> O=C(NC1=NCCS1)c1ccccc1Cl
  1.1, -10.2, -0.5, -10.7, 3371, -5.0, -6.4
> O=C(c1ccc(COc2ccc(Cl)cc2)o1)N1CCN(Cc2ccc3c(c2)OCO3)CC1
  4.2, -11.6, 3.8, -25.2, 8249, 2.6, 4.6
> Oc1cc(-c2cccnc2)cc2cccnc12
  100.2*, /, 100.1*, -14.8, 3863, 2.8, -2.5
> c1ccc(C2(CN3CCNCC3Cc3cccc4ccccc34)CC2)cc1 (configuration not stated)
  -5.2, /, -31.8, /, /, 16.7, 13.0
> Cc1cc(C)n(-c2cccc3cccnc23)n1
  2.4, 6.0, 4.1, -14.6, 5305, 5.6, 10.0
> O=C(Nc1ccc(Cl)cc1)c1ccc2ncsc2c1
  0.7, -2.4, -9.9, -101.5, 3753, -6.5, 2.1
> CC(OC(=O)C1CCN(c2ccc(C(F)(F)F)cn2)CC1)C(=O)Nc1cccc([N+](=O)[O-])c1 (configuration not stated)
  -15.2, /, -28.4, -5.1, /, -7.5, -2.3
> Cn1nc(C(C)(C)C)c([N+](=O)[O-])c1C(=O)Nc1cccc2ccccc12
  13.0, -4.7, 9.5, -18.4, 6415, 4.7, 13.5
> COc1ccccc1CNS(=O)(=O)c1ccc(S(=O)(=O)NC2CC2)cc1
  0.9, -10.5, -2.8, -32.7, 3472, -8.3, 1.5
> O=C1CCC(C(=O)N2CCCC2)CN1CCc1cccc(F)c1 (configuration not stated)
  -0.3, -1.8, -4.4, -18.2, 5265, -0.6, -1.6
> COC(=O)c1ccccc1NC(=S)NC(=O)C1CCCCC1
  2.1, -10.6, 30.8, -2.7, 2005, 14.6, 3.6
> COc1ccc(-n2c3c(cc(C(=O)N4CCCCC4)c2=O)C(=O)CC(C)(C)C3)cc1
  3.1, -3.5, 6.7, -15.7, 3369, /, /
> O=C(Oc1ccccc1C(=S)N1CCCCC1)c1cc([N+](=O)[O-])cc([N+](=O)[O-])c1
  5.3, 0.9, 2.2, -25.3, 3393, 0.3, 9.2
> Cc1ccc(C(=O)Nc2c3c(nn2C(C)(C)C)CS(=O)(=O)C3)cc1[N+](=O)[O-]
  6.0, -8.2, 14.3, -5.5, 4141, 6.2, 1.0
> CCOC(=O)/C=C/C(=O)OCC(=O)NCc1ccccc1
  9.4, /, 3.7, -12.8, 2532, 20.5, 3.2
> COc1cc(N)ccc1-c1cc2ccccc2oc1=O
  3.5, -1.5, 2.8, -10.3, 4040, 5.9, -6.9
> CC(C)NC(=O)N1CCOCCOCCN(C(=O)NC(C)C)CCOCCOCC1
  -3.2, /, 1.3, -7.0, 2927, /, /
> O=C(NCCc1ccco1)C(=O)NCC1OCCCN1S(=O)(=O)c1ccc(Cl)cc1 (configuration not stated)
  1.8, -14.0, 0.2, -0.1, 5749, -7.7, -12.0
> NS(=O)(=O)c1ccc(NC(=O)CSc2nc3ccccc3[nH]2)cc1
  /, -1.3, /, -17.8, 4270, /, /
> Cc1ccc(Cl)c(OC(=O)Cn2cnc3c2c(=O)n(C)c(=O)n3C)c1
  7.2, 5.0, 9.0, -16.8, 4370, -6.6, -2.0
> Cc1ccc(-n2nc(C(=O)NN)c(C)c(C#N)c2=O)cc1Cl
  /, 6.6, /, -5.1, 3957, /, /
> CCN(CC(=O)Nc1ccc(NC(C)=O)cc1)C(=O)c1ccc(N2CCCC2)c([N+](=O)[O-])c1
  1.7, /, 0.6, -4.2, 5566, -4.3, 8.8

Brought forward from above: two compounds, then new ones.
Values in the order: Sa RN4220 lethal, BJeLR viability, ugtP null kill, PrP UTR inh, Bead autofluor, Mtb hypoxia inh, Mtb hypoxia inh growth
> Cc1ccc(-n2nc(C(=O)NN)c(C)c(C#N)c2=O)cc1Cl
  /, 6.6, /, -5.1, 3957, /, /
> CCN(CC(=O)Nc1ccc(NC(C)=O)cc1)C(=O)c1ccc(N2CCCC2)c([N+](=O)[O-])c1
  1.7, /, 0.6, -4.2, 5566, -4.3, 8.8
> CC(=NNc1cccc2cccnc12)c1ccc(C)cc1
  -11.1, /, 62.8, /, /, 8.1, 2.4
> O=C(Nc1ccc(F)cc1F)N1CCN(C(=O)c2ccco2)CC1
  4.8, 2.4, 9.1, 1.9, 6228, 9.5, 7.3
> CCOc1cccc(/C=N/NC(=S)Nc2ccccc2[N+](=O)[O-])c1O
  /, -8.2, /, 38.0, 2108, /, /
> CCOc1ccc2nc(N=Cc3c(C)[nH]n(-c4ccccc4)c3=O)sc2c1
  0.6, /, 8.1, /, /, 4.1, -5.8
> Cc1nn(CC(O)CN2c3ccccc3Sc3ccccc32)c(C)c1Br (configuration not stated)
  -15.0, -4.3, -30.5, -0.6, 2667, /, /
> CCCCOc1c(Cl)cc(C(=O)N(C)CC(=O)Nc2ccc(N3CCOCC3)cc2)cc1OCC
  3.1, 12.0, 4.5, -10.2, 5741, 8.7, -1.1
> COc1ccc(N(CC(=O)NC(C)(C)C)C(=O)c2ccco2)cc1
  3.2, -3.5, -0.8, -15.7, 9969, 7.3, 9.5
> O=C(N/N=C/c1cccnc1)c1cc(-c2ccc(Cl)cc2)nc2ccccc12
  /, -1.0, /, -10.9, 5774, /, /
> Cc1cc(C)cc(N(CC(=O)N2CCC(C)CC2)S(C)(=O)=O)c1
  -0.9, 1.6, 7.7, -9.0, 4095, /, /
> COc1ccc(C=NNC(=O)CCSc2nc3ccccc3s2)cc1OC
  0.6, /, 6.6, /, /, 11.9, 9.2
> Cc1nc2ccccc2c(=O)n1N=Cc1ccc(O)c(O)c1O
  3.5, /, -0.8, /, /, 12.6, -11.8
> c1ccc(-c2csc(N3CCc4ccccc4C3)n2)cc1
  0.4, -6.8, -4.1, -29.5, 4543, 3.9, 5.1
> CCOCCCN(Cc1ccco1)C(=O)c1cc2c(=O)[nH]c3ccc(C)cc3c2s1
  -9.8, -25.1, -17.8, -43.0, 5377, 4.4, 8.9
> Cc1c(C(=O)n2cnc3ccccc32)cccc1[N+](=O)[O-]
  3.4, 1.5, 15.2, -11.1, 4165, 8.4, 6.6
> CC1CCN(c2ccc(NC(=O)Cc3ccccc3)cc2)CC1
  -0.6, -3.3, -1.0, -54.2, 12614, 5.4, 2.5
> COc1ccc2oc(C(=O)N(C)CCOc3ccc(Cl)cc3)c(C)c2c1
  7.1, -1.2, 1.3, -27.5, 5303, 5.9, 6.4
> S=C(Nc1ccccc1)Nn1cnnc1
  3.2, -6.0, 2.1, -5.5, 2006, -0.4, -1.7
> Cc1noc(C)c1COc1ccc(C(=O)N2CCN(c3cccc(Cl)c3)CC2)cc1
  12.1, /, -1.6, -6.9, ?, 1.4, 2.4
> Cc1ccc(S(=O)(=O)CCc2nc3ccccc3[nH]2)cc1
  7.6, 7.9, 4.6, -19.9, 3878, 4.8, -3.1
> CC(Oc1ccc(Cl)cc1Cl)C(=O)Nc1ccc(OCC(=O)O)cc1 (configuration not stated)
  1.1, 1.2, 5.4, -20.4, 4573, 7.4, 20.2
> CCOC(=O)Nc1ccccc1C(=O)N1CCOCC1
  2.4, -8.7, -1.2, -16.9, 4639, 0.8, 5.5
> CC(=NNC(=O)c1cccc2ccccc12)c1cccnc1
  3.3, /, 4.7, /, /, 8.4, -2.4
> O=C(OCC(=O)N1CCCC1)c1ccc(S(=O)(=O)Nc2ccccc2)cc1
  5.5, 4.9, 4.6, -2.6, 3673, 10.3, 13.6
> CC(=O)c1cccc(NC(=O)CSc2ccc(-c3ccco3)nn2)c1
  5.4, -4.9, -11.5, -22.1, 5961, 8.4, 9.2
> COC/C=C/C1=CC2=CC(=O)C(C)(OC(=O)c3cnc4ccccc4n3)C(=O)C2=CN1Cc1ccco1 (configuration not stated)
  /, -7.6, /, -13.9, 3415, /, /
> COc1cc(/C=N\NC(=O)C2CC3C=CC2C3)ccc1O (configuration not stated)
  /, 2.1, /, -6.9, 2214, /, /
> Cc1cc(S(=O)(=O)N(Cc2ccccc2)Cc2ccc(N(C)C)cc2)ccc1-n1cnnn1
  4.1, -2.1, 1.2, -15.4, 11043, 7.8, 5.1
> COC(=O)CN(c1nc(C)cc(OC)n1)S(=O)(=O)c1ccccc1
  6.9, 5.0, 15.1, -50.9, 2981, /, /
> COc1ccc(C=NNC(=O)c2cccc(NC(C)=O)c2)c(OC)c1
  -1.0, /, 7.4, /, /, -4.2, -3.0
> COc1ccc(N=Cc2c(O)[nH]c3ccccc23)cc1OC
  /, -6.1, /, -18.4, 10232, /, /
> COc1ccc(C(=O)N2CCc3c([nH]c4ccccc34)C2C(F)(F)F)cc1 (configuration not stated)
  12.9, -2.1, 6.2, -22.8, 6179, 9.1, -0.7
> CCOP(=O)(c1c(F)c(F)c(F)c(F)c1F)C1(O)CCCCC1 (configuration not stated)
  2.0, 2.2, 1.1, -21.3, 4852, /, /
> COC(=O)c1sc2nc(C)cc(-c3ccccc3)c2c1N
  10.3, -12.7, -1.8, -20.7, 2471, 5.4, 6.2
